Cruzain noTriton = qHTS Assay for Promiscuous and Specific Inhibitors of Cruzain (without detergent). purified cruzain, Z-FR-AMC fluorescence, no detergent. Potency, µM, for the others: max response, negative = inhibition, most hits filed as inhibitors. 200,000 compounds, 2.3% hits. AID 1476, 2009;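 note: plate controls were enzyme without inhibitor for no effect and buffer without enzyme for full effect; nearly all actives have a fitted effect of over 40% in size; top concentration of the series not given in the record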
Target sequence (P25779 123-467 limits assumed): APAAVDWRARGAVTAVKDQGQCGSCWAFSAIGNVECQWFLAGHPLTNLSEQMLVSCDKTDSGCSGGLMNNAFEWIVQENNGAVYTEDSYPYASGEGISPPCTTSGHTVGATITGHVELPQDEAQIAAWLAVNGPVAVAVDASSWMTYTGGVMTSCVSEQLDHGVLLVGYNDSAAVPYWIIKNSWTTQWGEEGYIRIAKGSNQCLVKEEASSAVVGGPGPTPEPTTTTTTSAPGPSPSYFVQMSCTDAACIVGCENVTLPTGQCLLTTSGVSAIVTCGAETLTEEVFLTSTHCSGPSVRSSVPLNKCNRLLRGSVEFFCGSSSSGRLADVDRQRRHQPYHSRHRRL
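Detergent-free condition (0.00005% Triton X-100) in acetate buffer pH 5.5 with DTT. 1.5 nM enzyme and compound were pre-mixed 15 min, then 2 uM Z-FR-AMC substrate added; reaction progress from fluorescence change between first and third reads (60 s).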
Cruzain inh Det = qHTS Assay for Promiscuous and Specific Inhibitors of Cruzain (with detergent); purified cruzain, Z-FR-AMC fluorescence, 0.01% Triton; Potency, µM, inactives show max response, negative = inhibition, hits mostly inhibitors; 200,000 compounds, 0.43% hits; AID 1478, 2009;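 note: plate controls were neutral wells for no effect and buffer without enzyme for full effect; nearly all actives have a fitted effect of over 40% in size; top concentration of the series not given in the record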
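Enzyme 1.5 nM, Z-FR-AMC 2 uM, NaOAc 100 mM pH 5.5, DTT 5 mM, Triton X-100 0.01%; 15 min RT compound preincubation; kinetic ex360/em450, 60 s delta.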
SARS PLP yeast = qHTS of Yeast-based Assay for SARS-CoV PLP | S. cerevisiae expressing SARS-CoV PLpro, growth rescue; control for the full effect not named in the record | Potency, µM (highest dose often 32.9 µM), for the others: at the highest dose activity, positive = growth rescue | 330,000 compounds, 0.19% hits; active means well fitted rising curve with a large enough effect; inconclusive means small, poorly fitted or top-dose-only effect; inactive means no such curve, though single readings can be large or run the other way; note: 0% is about no effect; nearly all actives have a fitted effect of over 55% in size; growth read by luminescence after 48 h
Lassa entry inh = qHTS for Inhibitors of binding or entry into cells for Lassa Virus | Lassa virus pseudotype entry inhibition, cell reporter; control for the full effect not named in the record | Potency, µM (highest dose often 37.9 µM), for the others: top-dose activity change, negative = inhibition, usual class: inhibitors | 300,000 compounds, 1.2% hits | AID 540256, 2011; active means well fitted inhibition curve with a large enough effect; inconclusive means small, poorly fitted or top-dose-only effect, or effect the other way; inactive means flat fitted curve, though single readings scatter; tested in HEK293 cells; note: % is set by controls: 0 for no effect and ±100 for the full control effect; nearly all actives have a fitted effect of over 50% in size; luciferase read-out
MARV entry inh = qHTS for inhibitors of binding or entry into cells for Marburg Virus. Marburg virus pseudotyped entry inhibition, cell reporter; control for the full effect not named in the record; about a third of the inactives were read at about 46 µM. Potency, µM (top dose mostly 37.8 µM), without a hit: at the highest dose activity change, negative = inhibition, usual class: inhibitors. 300,000 compounds, 1.8% hits. AID 540276, 2011; active = well fitted inhibition curve with a large enough effect; inconclusive = small, poorly fitted or top-dose-only effect, or effect the other way; inactive = flat fitted curve, though single readings scatter; tested in HEK293 cells; about a fifth of its hits are not listed in these tables; note: % is set by controls: 0 for no effect and ±100 for the full control effect; luciferase read-out
RE007 growth inh = qHTS Assay for Inhibitors of the HIV-1 protein Vpr; S. pombe RE007 Vpr strain, BacTiter-Glo ATP luminescence, 24 h; control for the full effect not named in the record; Potency, µM (titrated, usually from 92.2 µM), without a hit: at the top dose activity change, negative = less growth; 360,000 compounds, 0.21% hits; AID 651644, 2012; active = well fitted falling curve with a large enough effect; inconclusive = small, poorly fitted or top-dose-only effect; inactive = no such curve, though single readings can be large or run the other way;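 note: % is set by controls: 0 for no effect and ±100 for the full control effect; nearly all actives have a fitted effect of over 50% in size; the assay follows cell death caused by Vpr and the record does not say whether a fall means rescue or toxicity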
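Fission yeast strain RE007, carrying one chromosomally integrated HIV-1 vpr copy, was seeded at OD 0.01 in PMG+AL medium with 23 nL pinned compound. After 24 h at 30 °C and 99% humidity, viability was read by BacTiter-Glo luminescence.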
StopGo reporter = High Throughput Screening for Foot and Mouth Disease Virus Antivirals; human cells with a luciferase reporter of 2A StopGo recoding; control for the full effect not named in the record; 410,000 compounds, 1.2% hits; Potency, µM (top dose mostly 57.9 µM), without a hit: at the highest dose signal change, negative = less light; active = well fitted falling curve with a large enough effect; inconclusive = small, poorly fitted or top-dose-only effect; inactive = no such curve, though single readings can be large or run the other way; tested in HEK293T cells; note: % is set by controls: 0 for no effect and ±100 for the full control effect; nearly all actives have a fitted effect of over 45% in size; luciferase light after 4 h
NS1 inh = qHTS Assay for Inhibitors of Influenza NS1 Protein Function. S. cerevisiae slowed by influenza A NS1, growth recovery by OD600. Potency, µM (highest dose often 46.1 µM), for the others: top-dose activity, positive = more growth. 270,000 compounds, 0.4% hits. AID 2326, 2010; active means well fitted rising curve with a large enough effect; inconclusive means small, poorly fitted or top-dose-only effect; inactive means no such curve, though single readings can be large or run the other way; note: nearly all actives have a fitted effect of over 50% in size
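S. cerevisiae expressing influenza A NS1, grown in glucose, washed, then diluted 1:100 into pH 6.0 -URA galactose medium with 23 nl compound. Growth recovery read as OD600; NS1-free strain serves as control.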
Active calls of the source: *; ? = inconclusive; / = not tested or not shown; [ ] = dose if it differs, or a comment. Unless noted, calls come from the whole dose curve; as a rule, active = well fitted curve in the direction sought with a large enough effect; inconclusive = small, poorly fitted or top-dose-only effect, or another doubt; inactive = no such curve, though single readings can be large; an effect the other way counts as inactive or inconclusive. Potency is the fitted concentration of half-maximal effect.

item	Compound	Cruzain noTriton	Cruzain inh Det	SARS PLP yeast	Lassa entry inh	MARV entry inh	RE007 growth inh	StopGo reporter	NS1 inh
1	COc1cccc(NC(=O)Cn2c(=O)n(Cc3ccc4c(c3)OCO4)c(=O)c3oc4ccccc4c32)c1	?	-0.4%	/	-1%[46.1 µM]	/	/	-13%	/
2	O=C(C1=NN[C@@H]2C(=O)N(c3ccccc3C(F)(F)F)C(=O)[C@H]12)C(c1ccccc1)c1ccccc1	1%	-9.4%	3%	3%	2%	-5%	0%	17%
3	NS(=O)(=O)c1ccc(NC(=O)COC(=O)c2cn(-c3ccccc3)nc2-c2ccccc2)cc1	/	/	-2%	-12%	?	-9%	-20%	2%
4	CCN(c1cccc(C)c1)S(=O)(=O)c1ccc(-c2cc(C)no2)s1	/	/	-2%	/	/	14%	-23%	-4%
5	Cc1ccc(-c2cc(C(=O)Nc3cc(C)on3)no2)cc1	/	/	0%	/	/	2%	37%[activator]	3%
6	Cc1ccc(C)c(Cn2nnc3c(=O)[nH]c(C4CCN(S(=O)(=O)c5ccc(S(=O)(=O)N(C)C)cc5)CC4)nc32)c1	/	/	1%	?	?	?	2%	6%
7	CCCn1nnc(NC(=S)NC(=O)/C=C/c2ccco2)n1	/	/	3%	13%	16%[46.1 µM]	-2%	-6%	16%
8	CCCOc1cccc(C(=O)Nc2ccc(-c3cc4ccccc4oc3=O)c(C)c2)c1	-15%	-11%	/	?	/	/	7%	/
9	COc1ccc(/C=C/C(=O)N2CCN(c3ccccc3)CC2)cc1S(=O)(=O)N1CCOCC1	/	/	2%	?	-16%[46.1 µM]	3%	14µM*	/
10	CC(NC(=O)c1ccccc1F)c1nnc(SCC(=O)NC2CCCCC2)n1C (configuration not stated)	/	/	0%	0%[46.1 µM]	-27%[46.1 µM]	-2%	-6%	-4%
11	CC1CCN(C(=O)Cn2c(=O)n(-c3ccc(Cl)cc3)c(=O)c3c4c(sc32)CCC4)CC1	-5%	-3.3%	/	20%[46.1 µM]	4%[46.1 µM]	/	-13%	/
12	Cc1ccc(OC(C)C(=O)N2CCN(CCc3ccccn3)CC2)cc1C (configuration not stated)	11%	2.2%	/	-26%[46.1 µM]	15%[46.1 µM]	/	-16%	/
13	COCCCNC(=O)c1cn(-c2cccc(OC)c2)c(=O)c2ccccc12	/	/	1%	/	/	11%	-3%	4%
14	CCOC(=O)N1CCN(C(=O)C2CCC(=O)N(Cc3cccc(C(F)(F)F)c3)C2)CC1 (configuration not stated)	/	/	0%	-10%	5%	9%	-18%	-4%
15	CCc1ccc(S(=O)(=O)Nc2ccncc2)cc1	/	/	2%	/	/	1%	20%	10%
16	Cc1onc(-c2c(Cl)cccc2Cl)c1C(=O)N1CCSCC1	/	/	0%	3%[46.1 µM]	22%[46.1 µM]	1%	2%	-2%
17	COc1ccccc1NC(=S)N(Cc1ccccc1)Cc1cccnc1	/	/	1%	-7%	-14%[46.1 µM]	-18%	4%	/
18	Cc1ccc(S(=O)(=O)N2CC(=O)Nc3ccccc32)cc1	-2%	1.3%	4%	19%	5%	3%	/	0%
19	CC(C)CCCn1c(O)c(/C=C2/C=CC=N2)c(=O)[nH]c1=O	9%	-3.9%	-26%	?	-12%	-10%	?	-10%
20	COc1cc(Cl)c(C)cc1NC(=O)Cc1cccs1	/	/	-12%	4%	-12%	-14%	12%	-18%
21	Cc1ccc(/C=C2\C(=O)NC(=O)N(Cc3ccccc3Cl)C2=O)o1	/	/	13%	/	/	16%	32µM*	-6%
22	CC1CN(C(=O)N[C@@H](Cc2ccccc2)C(=O)O)CC(C)O1 (some centres not stated)	-6%	4.1%	0%	0%	21%	-10%	22%	3%
23	CCOc1cc(C(=O)Nc2ccc(-c3nc4ccccc4s3)cc2Cl)cc(OCC)c1OCC	-5%	0.6%	/	25%[46.1 µM]	/	/	13%	/
24	CN(C)CCOC1c2ccccc2C=Cc2ccccc21	/	/	/	?	?	-20%	-26%	/
25	Cc1ccc(C(=O)C[n+]2ccccc2)cc1	/	/	-1%	?	4%[46.1 µM]	10%	-6%	3%
26	COc1ccccc1CNC(=O)Cn1cc(Br)ccc1=O	/	/	3%	0%[46.1 µM]	7%[46.1 µM]	-2%	-15%	2%
27	CC1CCCN(C(=O)COC(=O)C2CCN(S(=O)(=O)c3ccc(Cl)c(C(F)(F)F)c3)CC2)C1 (configuration not stated)	/	/	4%	-30%[46.1 µM]	6%	-12%	-7%	/
28	CCOC(=O)C1CCCN(C(=S)Nc2ccc(C)cc2C)C1 (configuration not stated)	-6%	1.8%	1%	6%	-7%	0%	20%	-3%
29	O=C(c1cc(S(=O)(=O)N2CCOCC2)ccc1F)N1CCCc2ccccc21	1%	0.6%	3%	8%	2%	-8%	0%	-8%
30	CN(C)CCNC(=O)c1sc2nc(-c3ccccc3)cc(C(F)(F)F)c2c1N	/	/	-23%	?	5µM*	1%	-25%	12%
31	O=C(CS(=O)(=O)c1ccccc1)Nc1ccc(N2CCOCC2)cc1	/	/	-3%	/	-11%[46.1 µM]	-2%	18%	4%
32	COc1ccc(NC(=O)CN2CCC(C(=O)c3ccc(C)cc3)CC2)c(OC)c1	/	/	0%	?	-29%[46.1 µM]	-15%	-18%	9%
33	CCN(CC)CCNC(=O)c1ccc(NC(=O)c2cc(S(=O)(=O)N3CCCCC3)ccc2C)cc1	/	/	-2%	3%	?	-1%	-4%	/
34	Nc1cc(N)nc(SCc2nnnn2-c2ccc(Cl)cc2)n1	-1%	-0.7%	-19%	6%	11%	-3%	-21%	13%
35	COc1ccc(Cl)cc1NC(=O)CCCS(=O)(=O)c1nc(-c2ccc(OC)c(OC)c2)cc(C(F)(F)F)n1	?	-11%	/	-4%[46.1 µM]	?	/	?	/
36	COc1ccc(CNc2ncc(-c3ccccc3)n2C)c2ccccc12	/	/	3%	/	/	7%	-1%	4%
37	COC(=O)c1ccc(C(=O)OC)c(NC(=O)CSc2n[nH]c(N)n2)c1	/	/	-3%	12%[46.1 µM]	-11%[46.1 µM]	-4%	20%	/
38	CC(=O)Nc1ccc(NC(=O)COc2ccc(S(=O)(=O)N3CCCC3)cc2)cc1	/	/	0%	-13%	1%	-18%	32%[activator]	4%
39	CC(=O)c1ccc(NC(=O)Nc2cccc3ccccc23)cc1	/	/	-3%	/	/	6%	45%[activator]	2%
40	O=C(CSc1nnc(-c2ccncc2)n1C1CCCCC1)Nc1cccc(O)c1	12%	7.0%	-3%	2%	-2%	0%	15%	-5%
41	O=C(COC(=O)C1Cc2ccccc2CN1C(=O)c1ccccc1)Nc1ccc(SC(F)F)cc1 (configuration not stated)	?	-2.9%	-12%	-2%	?	11%	-2%	12%
42	C[N+]1(C2CCC3CCCC2C3O)CCCC1 (configuration not stated)	-1%	-0.2%	-16%	6%	4%	2%	8%	-15%
43	Cc1ccc2c(C)c(C(=O)N(C)C(C)c3ccncn3)oc2c1C (configuration not stated)	/	/	-5%	/	/	-2%	34%[activator]	-9%
44	O=C(COC(=O)C1CCN(S(=O)(=O)c2cccs2)CC1)Nc1ccc(F)c(F)c1F	/	/	-3%	-3%	20%	-3%	-12%	/
45	COc1ccc(/C=C2/S/C(=N/N=C3\CC4CCC3(C)C4(C)C)NC2=O)cc1 (configuration not stated)	?	-1.2%	-7%	?	-3%	-14%	-21%	9%
46	CC(=O)Nc1ccc(Br)c2ccccc12	/	/	0%	14%[46.1 µM]	?	-2%	-18%	-3%
47	Cc1cc2ncn(/N=C/c3ccc4c(c3)OCO4)c2cc1C	/	/	4%	0%	4%[46.1 µM]	?	31%[activator]	6%
48	CCC(NC(=O)OC(C)(C)C)C(=O)Oc1cc(C)cc2oc(=O)c3c(c12)CCC3 (configuration not stated)	-6%	2.3%	-11%	-11%	-5%	3%	-5%	3%
49	CCc1ccc(OCC(=O)NC(=S)Nc2ccc(S(=O)(=O)NC3CCCCC3)cc2)cc1	-12%	-1.0%	-9%	-13%	?	10%	-3%	1%
50	c1cc(CNCCc2ccc3c(c2)OCO3)ccn1	/	/	0%	/	/	3%	-17%	-4%
51	CC(=O)Oc1ccc(-c2cccc(C(=O)O)c2)cc1	-2%	2.5%	2%	23%	22%	1%	/	-3%
52	CN(C)/C=C(/C(=O)c1ccc(Cl)cc1)n1cncn1	/	/	-1%	12%[46.1 µM]	?	-2%	8%	/
53	CCOC(=O)c1c(NC(=O)c2c(C(=O)O)cccc2[N+](=O)[O-])sc2c1CCCC2	/	/	-2%	3%	24%	-12%	-1%	4%
54	O=C1CCN(Cc2ccccc2)CCN1CCSc1ccccc1	/	/	11%	/	/	16%	58%[activator]	-2%
55	CCc1cccc(C)c1NC(=O)COC(=O)Cc1ccsc1	2%	-0.9%	-4%	-26%	?	0%	-16%	21%
56	CN(CC(=O)Nc1ccc(F)cc1F)S(=O)(=O)c1cccc2nsnc12	8%	-2.3%	/	12%[46.1 µM]	4%[46.1 µM]	/	-16%	/
57	CN(Cc1cccs1)C(=O)Cn1cnc2ccccc2c1=O	/	/	-1%	/	-7%[46.1 µM]	0%	14%	2%
58	COC(=O)Cc1cc(=O)[nH]c(/N=C(\N)Nc2ccccc2)n1	-1%	-8.3%	-5%	0%	-7%	1%	-21%	5%
59	O=C(COC(=O)c1ccc2[nH]c3c(c2c1)CCCC3)Nc1ccc(Cl)cc1Cl	?	-3.9%	-4%	5%	8.9µM*	-4%	-18%	6%
60	CN1CCc2nc3sc(C(=O)Nc4ccccc4OC(F)(F)F)c(N)c3cc2C1	7%	-7.8%	/	9%[46.1 µM]	/	/	-26%	/
61	CCOc1ccc(NC(=O)CN(C)C(=O)CC2OC(=O)c3ccccc32)cc1OCC (configuration not stated)	/	/	-4%	0%[46.1 µM]	1%	-29%	-6%	/
62	CC(C)N1CCc2c(sc(NC(=O)CCS(=O)(=O)c3ccccc3)c2C#N)C1	/	/	-4%	10%	-2%	-28%	0%	16%

Not a hit list. About 4.7% of those tested had a hit in this group.
